RecA intein inh: blocks M. tuberculosis RecA intein splicing. inhibition, %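 (about 9 µM by stock and volumes)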. 290,000 tested, 0.75% active. cell-free RecA intein splicing, fluorescence; in the data active means inhibition above about 30%; inconclusive means no clear call, values can overlap the other calls;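 further: 0% = vehicle wells and 100% = reference inhibitor control wells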
Target sequence (P9WHJ3 whole entry, looked up): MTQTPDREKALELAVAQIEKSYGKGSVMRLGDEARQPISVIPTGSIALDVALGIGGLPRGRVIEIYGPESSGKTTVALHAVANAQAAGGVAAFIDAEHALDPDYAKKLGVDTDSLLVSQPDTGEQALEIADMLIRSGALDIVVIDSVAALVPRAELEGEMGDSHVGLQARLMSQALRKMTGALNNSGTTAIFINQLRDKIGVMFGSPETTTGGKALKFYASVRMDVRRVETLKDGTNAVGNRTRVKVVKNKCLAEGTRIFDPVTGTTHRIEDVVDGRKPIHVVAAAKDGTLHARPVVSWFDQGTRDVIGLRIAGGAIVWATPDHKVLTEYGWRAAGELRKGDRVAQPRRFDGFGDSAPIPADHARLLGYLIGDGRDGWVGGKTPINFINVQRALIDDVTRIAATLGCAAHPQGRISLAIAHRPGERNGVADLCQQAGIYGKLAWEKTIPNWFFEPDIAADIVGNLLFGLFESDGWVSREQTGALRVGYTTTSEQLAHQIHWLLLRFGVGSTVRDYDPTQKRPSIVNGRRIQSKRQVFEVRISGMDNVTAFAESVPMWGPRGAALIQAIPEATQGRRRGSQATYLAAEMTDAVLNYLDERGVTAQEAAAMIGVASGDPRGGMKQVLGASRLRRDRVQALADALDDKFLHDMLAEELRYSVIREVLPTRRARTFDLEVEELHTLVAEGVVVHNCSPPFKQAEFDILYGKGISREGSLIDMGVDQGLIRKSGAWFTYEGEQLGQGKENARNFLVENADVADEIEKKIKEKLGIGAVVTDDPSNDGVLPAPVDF
Mtb betalactam: beta-lactam sensitization of Mtb H37Rv. M. tuberculosis H37Rv growth with meropenem, percent inhibition; hits of this screen are not shown here. inhibition, % at 25 µM. 330,000 tested, 0.27% active. AID 434955;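 active means about 74% or more and at least 40 points above the plate without the antibiotic, then above 30% in a dose series; inconclusive means first-round hits that could not be retested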;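 further: growth measured after seven days incubation then overnight dye step; 0% = bacteria only wells and 100% = bacteria with antibiotic; twin plates without the antibiotic show which effects depend on it; some results filed as inactive read as strong as hits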
YopH inh: YopH (Yersinia) phosphatase inhibition | inhibition, %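 (about 10 µM by stock and volumes)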 | 140,000 tested, 0.16% active | fluorescence Ex485/Em525;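 active means inhibition of 50% or more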;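 further: controls were vehicle for no effect and minimum signal wells for full effect; inactives centre near -20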
Arbovirus anti: antivirals against arbovirus infection | arbovirus infection cell-based antiviral screen | inhibition, % at 10 µM | 200,000 tested, 0.37% active | AID 1251;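 active means inhibition from about 30%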;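 further: bluetongue infection of BSR cells; cell survival read as ATP light after 72 h; 0% = infected wells without compound and 100% = uninfected wells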
Mtb H37Rv: M. tuberculosis H37Rv growth inhibitors, H37Rv strain (AID 1626). M. tuberculosis H37Rv growth inhibition; higher % means a stronger effect. one-dose inhibition, % at 10 µM; IC50 in µM for titrated hits. 220,000 tested, 0.95% active;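 active means confirmed in a dose series; inconclusive means inhibition above 80% but not taken into the dose series; inactive means below 80% or under 30% at every dose of the series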;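 further: bacteria incubated seven days before Alamar blue readout; 0% = bacteria only wells and 100% = bacteria with antibiotic wells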
Arbovirus anti repeat: recorded beside Arbovirus anti, whose call it bears; inhibition, %; measured here: 10K subset replicate screen; many hits read low in the repeat;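 first of two repeat runs on a subset; 0% = infected and 100% = uninfected wells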
* marks the source's active call; other numbers are inactive results; u = inconclusive; x = not tested or not shown. Not all compounds are listed; rates above refer to the full screens.

SMILES	RecA intein inh	Mtb betalactam	YopH inh	Arbovirus anti	Mtb H37Rv	others
CCCNC(=O)c1ccccc1NC(=O)CN(c1ccccc1)S(=O)(=O)N(C)C	-2.9	9	x	-4	8%
O=C1C=C(NCc2ccncc2)CC(c2ccccc2)C1 (stereo not drawn)	-3.0	-5	-35	-7	2%
Cc1ccc(OCc2nnc(SCc3nc4ccccc4[nH]3)n2Cc2ccco2)cc1	10	4	-35	-3	10%
CCOc1ccc(CNC(=O)NS(=O)(=O)c2ccc(OC)cc2)cc1	-3.2	1	-38	-1	-21%
CCN(CC)c1cc(C)c2cc(NC(=O)CNC(C)=O)ccc2n1	-4.2	0	-7	8	4%	Arbovirus anti repeat=3
C=C(C)CNC(=O)CCc1nnc(C2(c3ccc(Cl)cc3)CCC2)o1	0.6	-4	x	-7	3%
Cn1nnnc1SCC(=O)Nc1ccc2c(c1)OCO2	-2.0	7	x	-3	2%
O=C(O)C1CSC(c2ccccc2)N1C(=O)c1ccco1 (stereo not drawn)	-0.6	-1	3	6	-1%
COc1ccccc1C1CCN(C(=O)c2ccc(Cl)cc2)CC1	2.1	16	x	x	x
Cc1ccc(N/N=C2/CCCNC2=O)cc1	0.1	95	-30	-28	u
COc1cc(/C=C(/NC(=O)c2ccc(Cl)cc2Cl)C(=O)O)cc(OC)c1OC	3.5	-7	-20	6	-5%
CN(C)C(=O)CSc1nnc(Cc2ccccc2)n1Cc1ccco1	5.7	-3	-24	6	-10%
Cn1c(=O)c2sccc2n(Cc2cccc(Br)c2)c1=O	1.6	-5	x	x	x
Cn1nc(-c2ccccc2)c(CSc2ccccc2Cl)c1Cl	9.4	-5	-9	-16	10%
COc1ccc(C(Nc2ccc(S(=O)(=O)NCC3CCCO3)cc2)C(=O)NC(C)(C)C)cc1OC (stereo not drawn)	-2.9	1	x	5	-7%

Brought forward from above: 3 compounds; new compounds follow.
SMILES	RecA intein inh	Mtb betalactam	YopH inh	Arbovirus anti	Mtb H37Rv	others
Cn1c(=O)c2sccc2n(Cc2cccc(Br)c2)c1=O	1.6	-5	x	x	x
Cn1nc(-c2ccccc2)c(CSc2ccccc2Cl)c1Cl	9.4	-5	-9	-16	10%
COc1ccc(C(Nc2ccc(S(=O)(=O)NCC3CCCO3)cc2)C(=O)NC(C)(C)C)cc1OC (stereo not drawn)	-2.9	1	x	5	-7%
CC(=O)c1ccc(NC(=S)NCc2ccc(Cl)cc2Cl)cc1	-0.4	-4	x	-2	-4%
COc1ccc(CCn2c(C)cc3c(c2=O)C(c2ccc4c(c2)OCO4)C(C#N)=C(N)O3)cc1OC (stereo not drawn)	-5.0	-2	-24	-2	-3%
CC1CCN(C(=O)CCCC(=O)N2CCC(C)CC2)CC1	-0.2	-4	x	x	x
CCCN(CC(=O)Nc1ccc(C(C)=O)cc1)CC(=O)Nc1ccccc1C	-1.6	59	x	-9	-4%
O=C(CSc1nc2[nH]ncc2c(=O)[nH]1)Nc1ccc(OC(F)(F)F)cc1	-3.5	-2	x	x	x
Cc1ccccc1Cn1c(=O)c2c(nc3n2CCCN3Cc2ccccc2)n(C)c1=O	1.8	-15	-26	x	9%
Cc1csc(NC(=O)CSc2ncnc3ccccc23)n1	2.5	10	x	x	x
C/C(CC(=O)N(C(C)C)C(C)C)=N\NC(=O)COc1ccc(Cl)cc1Cl	0.1	1	x	0	2%
O=C(CCC(=O)N1CCN(c2ccccn2)CC1)Nc1nnc(C(F)(F)F)s1	-0.9	-1	x	x	-6%
CC(C)=NNc1nc2c(c(=O)n(C)c(=O)n2C)n1CCc1ccccc1	-10.0	-9	x	-4	3%
COc1ccc(-c2csc(N(CC3CCCO3)C(=O)c3ccccc3)n2)cc1 (stereo not drawn)	-0.9	3	x	7	7%
O=C(CSc1nncs1)NCc1ccc2c(c1)OCO2	-12	-2	-44	x	1%
CN1CCC2(CC1)Nc1nc(SCc3ccc(Cl)cc3)nn1C1=C2CN(C)CC1	-0.3	-14	-12	-27	0%
CO/N=C/CC(=O)c1ccc(OC)cc1	1.7	93	x	-7	-3%
Cc1cc(=O)oc2c3c(cc(OCC(=O)NC(Cc4ccc(Cl)cc4)C(=O)O)c12)OC(C)(C)CC3 (stereo not drawn)	0.4	-3	x	x	x
CN1c2ccccc2C(C)(C)C12CC(CCl)=NO2 (stereo not drawn)	11	-1	10	3	-1%
Cc1cccc(C(=O)NCC(=O)NCC2COc3ccccc3O2)c1 (stereo not drawn)	-0.4	-12	x	x	x
CC1(C)Cc2c(c(=S)nc(-c3ccccc3)n2CCCN2CCOCC2)CO1	6.2	3	-28	-2	-3%	Arbovirus anti repeat=1
CN1CCN(C2=Cc3ccccc3Sc3cc(F)ccc32)CC1	3.2	-4	-11	-35	3%
O=C(Nc1ccc2c(c1)OCO2)c1cnn2c1NC(c1ccco1)CC2C(F)(F)F (stereo not drawn)	-0.6	-2	-56	-11	4%
CCC(=O)Nc1ccc(-c2nnc(SCC(=O)N3CCCCC3)n2C)cc1	1.1	-4	-29	2	-7%
CC(=O)C1=C(C)NC(=O)NC1c1ccc(Cl)cc1 (stereo not drawn)	1.7	-6	x	2	1%
O=C(O)c1ccc(-n2[nH]c3c(c2=O)CCCC3)cc1	2.4	-4	x	3	-1%
N#Cc1ccccc1Cn1c(=O)n(CCCC(=O)NCc2ccc3c(c2)OCO3)c(=O)c2ccccc21	-4.0	13	-31	7	3%
COc1ccccc1Oc1ccc(N/C=C/C(=O)C(C)(C)C)cc1	1.9	-2	x	-9	-5%
S=C(NC1CCCC1)N1CCOCC1	-5.6	-2	x	2	2%
CC(=O)Oc1ccc(C(=O)Nc2ccccc2C(=O)Nc2cccc(C(=O)O)c2)cc1	1.7	2	x	x	x
COc1ccc(N(Cc2cc3ccc(C)cc3[nH]c2=O)C(C)=O)cc1	-0.4	-3	-41	4	1%
Cc1ccc(-c2nnn(CC(=O)N(Cc3cccs3)C(C(=O)NC3CCCCC3)c3ccco3)n2)o1 (stereo not drawn)	0.9	-3	14	-1	-13%
Cc1cc(-c2ccccc2)n2nc(N)nc2n1	-4.4	-1	x	x	-4%
O=C(CCC1N=C2c3ccccc3N=C(SCc3ccc(Cl)cc3)N2C1=O)NCc1ccco1 (stereo not drawn)	19	u	-56	-4	-11%
CC1CCCN(CCOc2ccc(Br)cc2)C1 (stereo not drawn)	0.8	-3	-9	-4	4%
COc1ccc(OC)c(NC(=O)COC(=O)CN(C)S(=O)(=O)c2ccc(C)cc2)c1	-1.0	5	-19	-5	-8%
Cc1ccc(CN(C)C(=O)C2CCC(=O)N(CC3CCCCC3)C2)o1 (stereo not drawn)	-0.3	-4	x	x	x
Cc1ccc2cccc(NC(=O)c3ccc(Br)o3)c2n1	-1.1	41	-25	-4	0%
COc1ccc(Nc2nc(C(C)(C)C)nc3c2nnn3Cc2ccccc2Cl)cc1OC	-0.8	-18	-6	x	-1%
COC(=O)C1=C(C)N(c2ccc(Cl)c(Cl)c2)C(=O)C1	4.0	58	-1	9	4%
CC(C)c1nnc(NC(=O)CSc2ncn[nH]2)s1	-1.0	-4	0	-2	-4%	Arbovirus anti repeat=2
Cc1ccc(C(=O)Nc2ccc3c(c2)OCCO3)cc1	0.5	0	x	x	x
COc1ccccc1NC(=S)NCCSc1ccc(Cl)cc1	12	3	-19	-13	9%
O=c1cc(-c2ccccc2)[nH]c2cc(Cl)ccc12	0.1	-6	-13	-18	-11%
CCn1c2ccccc2c2cc(NC(=O)c3cc(C)on3)ccc21	-1.5	74	x	-14	20%
Cc1ccc2nc3c(cc(C(=O)NC4CCCC4)c(=N)n3CCCn3ccnc3)c(=O)n2c1	-245	-1	x	5	2%
CC(=O)Nc1cccc(-c2nnc(SCC(=O)n3c4c(c5ccccc53)CCCC4)n2C)c1	x	u	-8	5	0%
Cc1c(C(=O)OCC(=O)N(C)C2CCS(=O)(=O)C2)oc2ccc(Br)cc12 (stereo not drawn)	-1.5	-3	x	x	-4%
COC(=O)c1c(-c2cccc(C)c2)csc1N	0.7	-9	-6	-3	-1%
CCOC(=O)N1CCN(c2cc(=O)n(-c3ccccc3Cl)c(=O)[nH]2)CC1	-1.5	-6	-11	7	3%	Arbovirus anti repeat=3
CC(Sc1nnc(-c2ccncc2)n1C)C(=O)NCC1CCCO1 (stereo not drawn)	9.3	-7	x	x	x
CCOc1cc(N2CCOCC2)c(OCC)cc1NC(=O)c1ccc(C)cc1	3.9	29	x	-8	13%
Cn1cccc1/C=C1/SC(=O)N(CC(=O)N2CCCC2)C1=O	6.5	0	x	-5	-4%
Cc1ccc(Cn2ccc(NC(=O)c3cc(C4CC4)on3)n2)cc1	8.0	-1	x	x	-5%
CCC1(C)Cc2nc3sc(C(=O)O)c(N)c3cc2CO1 (stereo not drawn)	1.5	-9	-4	-4	-3%	Arbovirus anti repeat=2
O=C1CC(c2ccccc2)CC(O)=C1C=NCc1ccc(Cl)c(Cl)c1 (stereo not drawn)	-1.9	78	-23	-3	x
COc1ccc(CN(C)CC(=O)NC(=O)NCc2ccccc2)cc1OC	2.8	0	-15	-9	9%
CC(C)c1nnc(NC(=O)COC(=O)/C=C/c2ccc([N+](=O)[O-])cc2)s1	-2.9	2	x	x	x
COC(=O)c1cc(OC)c(OC)cc1N1C(=O)CCCC1=O	-0.7	-7	x	x	x
CCn1c(SCC(=O)C(C)(C)C)nnc1-c1ccccc1OC	-0.9	2	-17	11	-1%
CCc1ccc[n+](-c2nc([O-])sc2C=O)c1	12	-6	x	x	-11%
O=C(O)Cc1ccc(NC(=O)Nc2cccc3ccccc23)cc1	2.3	3	x	x	x
CCOCCCN1C(=O)C(O)=C(C(C)=O)C1c1cccs1 (stereo not drawn)	5.2	8	-31	4	3%

For convenience, 3 of the compounds above:
SMILES	RecA intein inh	Mtb betalactam	YopH inh	Arbovirus anti	Mtb H37Rv	others
COc1ccc(CN(C)CC(=O)NC(=O)NCc2ccccc2)cc1OC	2.8	0	-15	-9	9%
CC(C)c1nnc(NC(=O)COC(=O)/C=C/c2ccc([N+](=O)[O-])cc2)s1	-2.9	2	x	x	x
COC(=O)c1cc(OC)c(OC)cc1N1C(=O)CCCC1=O	-0.7	-7	x	x	x

Ordered by SMILES length (ascending): some entries from above
SMILES	RecA intein inh	Mtb betalactam	YopH inh	Arbovirus anti	Mtb H37Rv	others
Cc1csc(NC(=O)CSc2ncnc3ccccc23)n1	2.5	10	x	x	x
O=C(O)Cc1ccc(NC(=O)Nc2cccc3ccccc23)cc1	2.3	3	x	x	x
Cn1cccc1/C=C1/SC(=O)N(CC(=O)N2CCCC2)C1=O	6.5	0	x	-5	-4%
